# Screens deposited in PubChem by National Center for Advancing Translational Sciences (NCATS).
# NS1 function inh = inhibitors of influenza NS1 protein function; 0.4% of 270,000 active; Potency, µM (top dose mostly 46.1 µM), inactives show at the highest dose activity, positive = more growth; AID 2326; S. cerevisiae slowed by influenza A NS1, growth recovery by OD600; note: actives are rising curves; nearly all actives have a fitted effect of over 50% in size
#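 Recovery from NS1-induced slow growth read by OD600 in budding yeast switched to galactose assay medium (pH 6.0, -URA) at 1:100 dilution. Compound 23 nl per well; the matching strain lacking NS1 serves as control.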
# Cruzain Triton = cruzain (T. cruzi) inhibition with detergent | purified cruzain, Z-FR-AMC fluorescence, 0.01% Triton | Potency, µM, without a hit: max response, negative = inhibition, actives largely listed as inhibitors | AID 1478 | P25779 | 0.43% of 200,000 active; active = well fitted curve in the direction sought with a large enough effect; inconclusive = small, poorly fitted or top-dose-only effect, or another doubt; inactive = no such curve, though single readings can be large; an effect the other way counts as inactive or inconclusive;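 note: plate controls were neutral wells for no effect and buffer without enzyme for full effect; nearly all actives have a fitted effect of over 40% in size; top concentration of the series not given in the record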
# Target sequence (P25779 123-467 limits assumed): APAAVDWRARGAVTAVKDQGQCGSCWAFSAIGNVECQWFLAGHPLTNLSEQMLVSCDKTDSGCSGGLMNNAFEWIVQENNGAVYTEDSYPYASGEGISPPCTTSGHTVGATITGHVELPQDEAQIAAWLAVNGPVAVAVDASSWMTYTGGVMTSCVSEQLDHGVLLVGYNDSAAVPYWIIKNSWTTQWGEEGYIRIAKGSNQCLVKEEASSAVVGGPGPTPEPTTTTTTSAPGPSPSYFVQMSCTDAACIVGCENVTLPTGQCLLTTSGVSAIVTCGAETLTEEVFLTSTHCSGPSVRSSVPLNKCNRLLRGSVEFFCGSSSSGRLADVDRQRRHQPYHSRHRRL
#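 Detergent-containing arm of a paired screen for aggregation-based inhibition: 0.01% Triton X-100 present. Cruzain at 1.5 nM cleaved 2 uM Z-FR-AMC at pH 5.5 with 5 mM DTT; AMC fluorescence gain over 60 s measured activity.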
# SARS PLpro yeast = blocks SARS-CoV papain-like protease in a yeast assay | S. cerevisiae expressing SARS-CoV PLpro, growth rescue; control for the full effect not named in the record | Potency, µM (doses to about 32.9 µM), for the others: at the top dose activity, positive = growth rescue | 0.19% of 330,000 active; note: 0% is about no effect; nearly all actives have a fitted effect of over 55% in size; growth read by luminescence after 48 h
# RE007 growth inh = less growth of the S. pombe RE007 Vpr strain | Potency, µM (highest dose often 92.2 µM), inactives show at the top dose activity change, negative = less growth | 0.21% of 360,000 active | S. pombe RE007 Vpr strain, BacTiter-Glo ATP luminescence, 24 h; control for the full effect not named in the record; active = well fitted falling curve with a large enough effect; inconclusive = small, poorly fitted or top-dose-only effect; inactive = no such curve, though single readings can be large or run the other way;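 note: % is set by controls: 0 for no effect and ±100 for the full control effect; nearly all actives have a fitted effect of over 50% in size; the assay follows cell death caused by Vpr and the record does not say whether a fall means rescue or toxicity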
#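 Fission yeast strain RE007, carrying one chromosomally integrated HIV-1 vpr copy, was seeded at OD 0.01 in PMG+AL medium with 23 nL pinned compound. After 24 h at 30 °C and 99% humidity, viability was read by BacTiter-Glo luminescence.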
# Cruzain noTriton = cruzain (T. cruzi) inhibition without detergent. P25779. Potency, µM, for inactives: max response, negative = inhibition, most hits filed as inhibitors. purified cruzain, Z-FR-AMC fluorescence, no detergent. 2.3% of 200,000 active; active = well fitted curve in the direction sought with a large enough effect; inconclusive = small, poorly fitted or top-dose-only effect, or another doubt; inactive = no such curve, though single readings can be large; an effect the other way counts as inactive or inconclusive;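 note: plate controls were enzyme without inhibitor for no effect and buffer without enzyme for full effect; nearly all actives have a fitted effect of over 40% in size; top concentration of the series not given in the record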
#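 Detergent-free condition (0.00005% Triton X-100) in acetate buffer pH 5.5 with DTT. 1.5 nM enzyme and compound were pre-mixed 15 min, then 2 uM Z-FR-AMC substrate added; reaction progress from fluorescence change between first and third reads (60 s).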
# MARV entry inh = Marburg virus entry inhibition; AID 540276; 1.8% of 300,000 active; Potency, µM (series often up to 37.8 µM), for inactives: at the top dose activity change, negative = inhibition, actives largely listed as inhibitors; Marburg virus pseudotyped entry inhibition, cell reporter; control for the full effect not named in the record; about a third of the inactives were read at about 46 µM; active = well fitted inhibition curve with a large enough effect; inconclusive = small, poorly fitted or top-dose-only effect, or effect the other way; inactive = flat fitted curve, though single readings scatter; tested in HEK293 cells; about a fifth of its hits are not listed in these tables; note: % is set by controls: 0 for no effect and ±100 for the full control effect; luciferase read-out
# 2A StopGo = FMDV 2A StopGo reporter, luciferase signal | Potency, µM (doses to about 57.9 µM), without a hit: at the top dose signal change, negative = less light | AID 1159524 | 1.2% of 410,000 active | human cells with a luciferase reporter of 2A StopGo recoding; control for the full effect not named in the record; active = well fitted falling curve with a large enough effect; inconclusive = small, poorly fitted or top-dose-only effect; inactive = no such curve, though single readings can be large or run the other way; tested in HEK293T cells; note: % is set by controls: 0 for no effect and ±100 for the full control effect; nearly all actives have a fitted effect of over 45% in size; luciferase light after 4 h
# Lassa entry inh = blocks Lassa virus binding to or entry into cells | 1.2% of 300,000 active | Potency, µM (series often up to 37.9 µM), for inactives: at the top dose activity change, negative = inhibition, most hits filed as inhibitors | Lassa virus pseudotype entry inhibition, cell reporter; control for the full effect not named in the record; active means well fitted inhibition curve with a large enough effect; inconclusive means small, poorly fitted or top-dose-only effect, or effect the other way; inactive means flat fitted curve, though single readings scatter; tested in HEK293 cells; note: % is set by controls: 0 for no effect and ±100 for the full control effect; nearly all actives have a fitted effect of over 50% in size; luciferase read-out
# Starred values were filed as active, the others as inactive; ? = inconclusive; . = not tested or not shown; & = joins results of further samples; [ ] = another dose, or the depositor's remark. Unless noted, calls come from the whole dose curve; as a rule, active means well fitted rising curve with a large enough effect; inconclusive means small, poorly fitted or top-dose-only effect; inactive means no such curve, though single readings can be large or run the other way. Potency is the fitted concentration of half-maximal effect.
SMILES,NS1 function inh,Cruzain Triton,SARS PLpro yeast,RE007 growth inh,Cruzain noTriton,MARV entry inh,2A StopGo,Lassa entry inh
CC(C)c1ccc(-c2csc3ncnc(N4CCN(C)CC4)c23)cc1,-1%,.,0%,1%,.,?,?,?
Cn1c(SCC(=O)Nc2ccccc2)nnc1C(F)(F)F,-2%,.,-3%,8%,.,3%,2%,16%
CCOc1ccc2c(c1)sc(N)[n+]2Cc1cc(C)cc2cccnc12,-24%,-10%,8%,2%,1%,?,?,?
CC(=O)NCC(=O)NNC1CC(=O)N(c2cccc(Cl)c2)C1=O (centres undefined),2%,.,-1%,2%,.,1%,-2%,?
COc1ccc(Cl)cc1NC(=O)N1CCN(c2ccccc2OC)CC1,-2%,.,-3%,-16%,.,?,-24%,?
COc1ccc2c(c1)c1c(c(=O)n(CCc3ccccc3)c(=O)n1Cc1cccc(C)c1)n2C,.,-0.6%,.,.,-4%,.,-1%,11%[46.1 µM]
CCOc1ccc2[nH]cc(C(=O)NCCc3ccccc3)c(=O)c2c1,12%,.,3%,2%,.,.,-5%,.
O=C(NCC1CCCO1)c1ccccc1OCc1ccc(Cl)cc1 (centres undefined),.,.,-3%,50%,.,?,?,-5%
CCNC(=S)N(CCCO)Cc1cc2cc3c(cc2[nH]c1=O)OCCO3,-1%,.,-9%,20%,.,-5%[46.1 µM],3%,13%[46.1 µM]
CCCCCn1c(=O)[nH]c2cc(C(=O)Nc3ccc(F)cc3)ccc2c1=O,.,-0.5%,.,.,?,13%[46.1 µM],-10%,?
Cc1ccc(NS(=O)(=O)c2cccc(C(=O)NC3CCN(Cc4ccccc4)CC3)c2)cc1,.,.,.,10%,.,?,-28%,-12%
O=C(COc1ccccc1Cl)Nc1ccc2nc(SCC(=O)N3CCCC3)sc2c1,.,-3.1%,.,.,-3%,-28%[46.1 µM],32µM*,-4%[46.1 µM]
COC(=O)c1c(NC(=O)c2nc3ccccc3s2)sc2c1CCN(C(C)=O)C2,-75%,-5.9%,21%,-9%,?,.,-22%,.
NC(=O)C[C@@H]1NC(=O)CNC(=O)c2cc([N+](=O)[O-])cc(I)c2NCCC(C(N)=O)NC1=O (some centres undefined),16%,-2.3%,-5%,18%,-3%,0%,-12%,1%
CCN(CC)CCN1C2=C(C(=O)CC(C)(C)C2)C(c2cccc(F)c2)C2=C1CC(C)(C)CC2=O,.,.,5%,-14%,.,11%&11%[46.1 µM],11%,19%
Cc1ccc2c(=O)cc(C(=O)Nc3ccc(S(=O)(=O)N4CCCCCC4)cc3)oc2c1,.,-1.2%,.,.,5%,1%[46.1 µM],-8%,22%[46.1 µM]
COc1ccc(S(=O)(=O)NCCc2sc3nc(-c4ccc(C)cc4)nn3c2C)cc1F,.,-5.3%,.,.,32%,.,-20%,-26%[46.1 µM]
COc1ccc(N(C)S(=O)(=O)c2ccc(C)cc2)c([N+](=O)[O-])c1,-9%,.,1%,0%,.,6%[46.1 µM],-17%,13µM*
Cc1nnc(SCc2cc(=O)oc3cc(O)ccc23)n1Cc1ccccc1,5%,-2.6%,14%,5%,19%,2%,-13%,-14%
NC(=O)c1ccccc1N/C=C/C(=O)c1ccco1,-5%,-5.8%,7%,-8%,-3%,-17%,31%[activator],20%
COc1cc(C(C(=O)NC(C)(C)C)N(C(=O)CNC(=O)c2cccs2)c2ccccc2)cc(OC)c1OC (centres undefined),4%,-1.5%,2%,-4%,20%,-1%,.,12%
COc1ccc2c(c1)C(NC(C)=O)CCc1cc(OC)c(OC)c(OC)c1-2 (centres undefined),.,.,.,15%,.,.,-17%,?
Cc1cc(=O)oc2c(C)c(OCC(=O)NCCCN3CCOCC3)ccc12,13%,.,1%,6%,.,25%[46.1 µM],-7%,24%[46.1 µM]
Cc1ccc(N(O)C(=O)OCCNC(=O)Nc2ccccc2)cc1,-1%,-2.1%,-13%,3%,9%,1%[46.1 µM],-17%,-9%
COCc1c(C(=O)N2CCN(Cc3ccc(C#N)cc3)CC2)oc2ccccc12,-11%,.,1%,10%,.,-16%[46.1 µM],-18%,4%[46.1 µM]
CCCCCCc1nnc(NC(=O)OCC)s1,-76%,-5.0%,0%,1%,1%,-6%,9%,1%
O=C(c1ccco1)N1CCN(c2ccc(Cl)cc2)CC1,-18%,12%,-7%,-22%,18%,?,30%[activator],?
CCN(CC)S(=O)(=O)c1ccc(C(=O)N2CCN(C3=NS(=O)(=O)c4ccccc43)CC2)cc1,-6%,.,1%,-6%,.,.,-29%,.
CCn1c(SCC(=O)Nc2nc(C)cs2)nnc1-c1ccco1,-3%,2.6%,8%,-4%,-3%,-1%,-9%,?
CC(=O)Nc1ccccc1C(=O)C(=O)Nc1ccc(F)cc1,-11%,0.2%,9%,-6%,-3%,5%,2%,1%
S=C(NCc1ccccc1Cl)Nc1ccccc1Cl,-11%,.,-2%,-1%,.,.,34%[activator],.
CC1CCCCN1CCCNC(=O)Cn1ncc2c3ccccc3n(Cc3ccccc3)c2c1=O (centres undefined),.,-2.3%,.,.,12%,?,0%,24%[46.1 µM]
O=C(c1ccccc1)c1ccncc1,3%,6.6%,1%,-5%,-1%,11%,22%,-4%
CCOc1ccccc1CNC(=O)Cn1c(-c2ccccc2)cc(C(C)=O)c1C,.,-0.5%,.,.,-14%,-6%[46.1 µM],0%,.
S=C(NCCc1ccccc1)NN=C1CCCCCC1,6%,.,0%,36%,.,19%[46.1 µM],54%[activator],-2%
Cc1ccc(NC(=O)c2cccc(NC(=O)/C=C/c3ccco3)c2)cc1C,8%,-9.0%,-20%,?,-10%,?,8%,-5%
Cc1ccc(S(=O)(=O)N(C)C)cc1NC(=O)COC(=O)COc1ccccc1[N+](=O)[O-],-12%,.,4%,-3%,.,0%[46.1 µM],-7%,-7%
CN1CCN(C(=O)COc2ccc(S(=O)(=O)Nc3ccc(F)cc3)cc2)CC1,-3%,.,3%,1%,.,10%[46.1 µM],11%,0%[46.1 µM]
COc1ccc(NCCNc2ccc(OC)cc2)cc1,5%,0.5%,-3%,6%,5%,7%,0%,-1%
c1ccc(-c2noc(C34CC5CC(CC(C5)C3)C4)n2)cc1,-4%,2.6%,-1%,-7%,0%,-1%,36%[activator],10%
CSc1ccccc1OCc1cc(C(=O)N2CCc3c(Cl)cccc3C2)no1,4%,.,-3%,0%,.,?,-24%,-30%[46.1 µM]
CCOc1ccc(N(C)C(=O)CCc2nnc3ccc(N4CCCCC4)nn23)cc1,12%,.,5%,-11%,.,.,-11%,.
O=C(Cc1ccccc1Cl)NNC(=O)Nc1ccccc1,10%,-1.5%,-12%,-10%,-10%,?,21%,7%
COc1ccc(NS(=O)(=O)c2cc(NC(=O)c3cccc(OCc4c(C)noc4C)c3)ccc2OC)cc1,?,-0.9%,-15%,-11%,-8%,?,55%[activator],?
CCCn1nc(NC(=O)COC)c2cc3cc(C)ccc3nc21,-4%,.,-2%,12%,.,.,29%,.
Cc1c(Cl)cccc1NC(=O)CCN1CCCC(C)C1 (centres undefined),-4%,3.9%,0%,-8%,4%,4%,-19%,-5%
COc1ccc(NC(=O)c2ccc(NC(=O)COC(=O)CC(NC(=O)c3ccccc3Cl)c3ccccc3)cc2)cc1 (centres undefined),8%,-3.3%,20%,3%,?,-11%,22%,?
O=c1[nH]c2ccc(S(=O)(=O)N3CCN(c4ccccc4F)CC3)cc2s1,-36%,-7.2%,-6%,3%,-4%,?,?,-17%
Cc1ccc(-n2nnnc2SCC(=O)Nc2sc(C)c(C)c2C#N)cc1C,0%,-5.4%,?,6%,?,-5%,.,?
COc1ccc(NC(=O)CN2CCC(Cc3ccccc3)CC2)cc1S(=O)(=O)N1CCOCC1,-10%,0.1%,17%,15%,17%,?,-8%,-2%
CN1C(=O)C(=Cc2ccccc2Oc2ccc(Cl)c(F)c2)C(=O)N(C)C1=O,-13%,-0.6%,5%,-11%,7%,?,?,-4%
O=C(Cn1cc(C(=O)c2cccs2)c2ccccc21)Nc1ccc(Br)cc1,.,-4.6%,.,.,?,-5%[46.1 µM],-26%,15%[46.1 µM]
CC1CC1C(=O)OCC(=O)Nc1ccc(N=Nc2ccccc2)cc1 (centres undefined),-40%,-11%,-22%,14%,-1%,?,4%,6%
Nc1ccc(-c2ccc3ccccc3n2)cc1,1%,-6.4%,.,.,-20%,6.3µM*,.,?
CC(=O)Nn1cnc2c(c1=O)C1(CCCCC1)Cc1ccccc1-2,-6%,-0.8%,3%,4%,16%,14%,-17%,?
COc1ccc([N+](=O)[O-])cc1NS(=O)(=O)c1ccc(C(=O)N2CCCC2)cc1,.,.,-5%,10%,.,-28%,-21%,13%
COc1ccc(OC)c(NC(=O)Cn2cc(C=O)c3ccccc32)c1,7%,.,0%,12%,.,?,-15%,?
COc1cc2cc(C(c3nnnn3C(C)(C)C)N3CCc4ccccc4C3)c(=O)[nH]c2cc1OC (centres undefined),-25%,-11%,-3%,-3%,?,?,.,?
Cc1ccc(C(=O)N2CCCC(Nc3ccc(C)c(C)c3)C2)c(=O)[nH]1 (centres undefined),.,.,.,4%,.,20%,-31%,5%
Cc1ccc(N2C(=O)C3C(C2=O)N2C(c4cccs4)C4C(=O)N(c5ccc(C)cc5)C(=O)C4N2C3c2cccs2)cc1 (centres undefined),2.5µM*,-0.6%,16%,19%,-13%,-4%,-20%,0%
Cc1ccc(S(=O)(=O)Oc2ccc(/C=C(/NC(=O)c3ccccc3)C(=O)NCCCC(=O)O)cc2)cc1,12%,.,0%,25%,.,27%[46.1 µM],-10%,?
O=C(CSc1ccc2nnc(-c3ccccn3)n2n1)N1CCN(c2ccccc2)CC1,-18%,-3.1%,-6%,-12%,0%,.,11%,.
